Assay outcomes from PubChem.
RecA splice inh = Mtb RecA intein splicing inhibition; cell-free RecA intein splicing, fluorescence; inhibition, %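 (about 9 µM by stock and volumes)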; P9WHJ3; actives 0.75% (n = 290,000); AID 2221; in the data active means inhibition above about 30%; inconclusive means no clear call, values can overlap the other calls;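 further: 0% = vehicle wells and 100% = reference inhibitor control wells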
Target sequence (P9WHJ3 whole entry, looked up, canonical isoform): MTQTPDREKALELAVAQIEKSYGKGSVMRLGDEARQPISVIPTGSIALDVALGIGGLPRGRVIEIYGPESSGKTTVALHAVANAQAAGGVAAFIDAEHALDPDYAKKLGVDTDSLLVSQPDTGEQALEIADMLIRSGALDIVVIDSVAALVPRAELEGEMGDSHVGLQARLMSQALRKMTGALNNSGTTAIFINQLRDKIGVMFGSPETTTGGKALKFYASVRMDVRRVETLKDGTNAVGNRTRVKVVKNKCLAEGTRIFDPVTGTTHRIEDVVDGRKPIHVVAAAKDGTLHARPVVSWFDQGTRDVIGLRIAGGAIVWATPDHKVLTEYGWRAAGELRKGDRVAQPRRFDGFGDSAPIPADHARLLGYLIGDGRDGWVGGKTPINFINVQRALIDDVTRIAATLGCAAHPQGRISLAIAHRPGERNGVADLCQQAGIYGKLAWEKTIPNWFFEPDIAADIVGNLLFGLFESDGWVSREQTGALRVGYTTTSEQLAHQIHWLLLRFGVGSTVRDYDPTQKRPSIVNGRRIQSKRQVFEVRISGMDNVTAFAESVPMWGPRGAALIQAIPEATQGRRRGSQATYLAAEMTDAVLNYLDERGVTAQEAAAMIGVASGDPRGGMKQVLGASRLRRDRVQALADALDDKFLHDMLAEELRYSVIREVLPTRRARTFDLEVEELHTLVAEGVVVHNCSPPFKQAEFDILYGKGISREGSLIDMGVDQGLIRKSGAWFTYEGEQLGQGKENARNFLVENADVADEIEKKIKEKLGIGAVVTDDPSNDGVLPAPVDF
Arbovirus anti = antivirals against arbovirus infection. inhibition, % at 10 µM. actives 0.37% (n = 200,000). arbovirus infection cell-based antiviral screen;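 active means inhibition from about 30%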;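 further: bluetongue infection of BSR cells; cell survival read as ATP light after 72 h; 0% = infected wells without compound and 100% = uninfected wells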
Mtb betalactam = beta-lactam sensitization of Mtb H37Rv | AID 434955 | actives 0.27% (n = 330,000) | M. tuberculosis H37Rv growth with meropenem, percent inhibition; hits of this screen are not shown here | inhibition, % at 25 µM;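 active means about 74% or more and at least 40 points above the plate without the antibiotic, then above 30% in a dose series; inconclusive means first-round hits that could not be retested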;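 further: growth measured after seven days incubation then overnight dye step; 0% = bacteria only wells and 100% = bacteria with antibiotic; twin plates without the antibiotic show which effects depend on it; some results filed as inactive read as strong as hits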
Mtb growth = M. tuberculosis H37Rv growth inhibitors, H37Rv strain (AID 1626); M. tuberculosis H37Rv growth inhibition; higher % means a stronger effect; one-dose inhibition, % at 10 µM; IC50 in µM for titrated hits; actives 0.95% (n = 220,000);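 active means confirmed in a dose series; inconclusive means inhibition above 80% but not taken into the dose series; inactive means below 80% or under 30% at every dose of the series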;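 further: bacteria incubated seven days before Alamar blue readout; 0% = bacteria only wells and 100% = bacteria with antibiotic wells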
YopH PTP inh = blocks Yersinia enterocolitica YopH tyrosine phosphatase | actives 0.16% (n = 140,000) | inhibition, %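 (about 10 µM by stock and volumes)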 | fluorescence Ex485/Em525;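 active means inhibition of 50% or more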;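 further: controls were vehicle for no effect and minimum signal wells for full effect; inactives centre near -20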
Arbovirus anti repeat = second read-out of Arbovirus anti, no call of its own (marks repeat the call); inhibition, %; measured here: 10K subset replicate screen; many hits read low in the repeat;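 first of two repeat runs on a subset; 0% = infected and 100% = uninfected wells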
Starred values were filed as active, the others as inactive; ? = inconclusive; . = no result given; & = joins results of further samples. Some of the compounds tested (hit frequency here may not be typical).

SMILES | RecA splice inh | Arbovirus anti | Mtb betalactam | Mtb growth | YopH PTP inh | others
O=C(CCCn1c(SCC(=O)c2ccc(F)cc2)nc2ccccc2c1=O)NCc1ccco1 | 0.4 | -9.7 | 2.7 | 0.6% | -34.6
COc1ccc(N2C(=O)c3ccccc3NC2c2ccc(OC)c(CN3CCOCC3)c2)cc1 (centres undefined) | -2.8 | . | 2.5 | -0.8% | .
CCN(CC)S(=O)(=O)c1cccc(-c2nnc(SCC(N)=O)n2N)c1 | -1.6 | . | 7.6 | 0.1% | .
C=CCOc1c2ccc(C(=O)N(CC)c3ccc(OC)cc3)cc2nn1C | -3.4 | -4.1 | -2.7 | -12.9% | -19.9
COc1ccc(N2C(=O)CCC(C(=O)NCCN3CCOCC3)C2c2ccc(OC)c(OC)c2)cc1 (centres undefined) | . | 1.8 | . | -4.5% | -20.2
CCOC(=O)CCC(=O)Nc1ccc(S(=O)(=O)N2CCC(C)CC2)cc1 | -3.4 | 8.4 | 4.1 | -9.6% | 32.9
CCN(CC(=O)Nc1ccccc1Br)C1CCCCC1 | . | 14.6 | -6.0 | 6.8% | .
O=C(CSc1nnc2ccccn12)NNC(=O)c1ccc([N+](=O)[O-])cc1 | -0.8 | . | 72.4 | -4.1% | .
COC(=O)c1sc(C(C)(C)C)cc1CS(=O)(=O)c1ccc(Cl)cc1 | 2.8 | . | -5.3 | -4.2% | .
CCSc1nc(-c2ccc(OC)cc2)cc(-c2ccc(OC)cc2)c1C#N | 0.5 | -10.4 | 13.8 | 8.1% | -15.4
COc1ccc(Nc2cc(C(=O)NCCCN3CCN(C)CC3)c3ccccc3n2)c(OC)c1 | 0.6 | 2.0 | -3.1 | -2.1% | -39.4
O=C(NCCCN1CCCCCC1)C1CC(=O)N(C2CCCC2)C1 (centres undefined) | 4.1 | -0.1 | -2.7 | -0.7% | -21.7
COC(=O)Cn1c(=NC(=O)CN2C(=O)CCC2=O)sc2cc(S(N)(=O)=O)ccc21 | 1.8 | 6.3 | 5.9 | 4.1% | -23.2
Cc1cc(NS(=O)(=O)c2ccc(NC(=S)NCc3ccccc3)cc2)no1 | 0.7 | -0.4 | -1.8 | 0.8% | .
Cn1nc(C(C)(C)C)cc1C(=O)NNC(=O)c1ccccc1Cl | -1.2 | . | -2.8 | 3.5% | .
CCOc1ccc(C2C(C#N)=C(N)N3C(=C2C#N)Sc2ccccc23)cc1 (centres undefined) | -10.4 | . | 0.1 | 4.6% | .
CCOC(=O)c1ccc(NC(=S)NCC(O)c2ccccc2)cc1 (centres undefined) | 0.2 | 13.1 | ? | . | -15.2
CS(=O)(=O)N(CCc1ccccc1)CC(=O)Nc1ccc2c(c1)OCO2 | -0.5 | 3.0 | -5.6 | -8.7% | -11.9
O=C(c1cccc(COCC(F)(F)C(F)F)c1)N1CCN(c2ccccc2)CC1 | 2.7 | 4.9 | 3.7 | -1.1% | -12.2
Cc1nc(SCC(=O)c2ccc(F)c(F)c2)[nH]c(=O)c1Oc1ccc(F)cc1 | 0.9 | . | -4.7 | -4.4% | .
O=Cc1sc(=O)n(Cc2cccc(C(=O)O)c2)c1Cl | 54.0* | . | -1.9 | -7.4% | .
COC(=O)COc1ccc(NS(=O)(=O)c2cccc([N+](=O)[O-])c2)cc1 | -1.9 | 0.8 | 70.6 | 14.7% | .
O=c1c2nnn(Cc3ccc(Cl)cc3)c2ncn1Cc1ccc(F)cc1 | -4.3 | 5.8 | -14.1 | 2.2% | -19.6
COc1ccc(-c2c(C(C)=O)c(C)nc3sc4c(=O)n(-c5ccc(C)cc5)nnc4c23)cc1 | -2.8 | 9.9 | -15.8 | . | -31.8
CCOC(=O)c1c(S(=O)(=O)N2CCCC(C(=O)Nc3ncccc3C)C2)c(C)n(C)c1C (centres undefined) | -2.0 | . | 2.5 | . | .
The results go on.
SMILES | RecA splice inh | Arbovirus anti | Mtb betalactam | Mtb growth | YopH PTP inh | others
Cc1cccc(SCC(=O)Nc2ccccc2[N+](=O)[O-])c1 | 6.2 | 2.8 | -8.8 | 7.5% | .
Cc1cccc2sc(N(CCCN(C)C)C(=O)c3ccc4ncsc4c3)nc12 | -1.8 | . | -3.5 | . | .
Cn1c(=O)oc2cc(S(=O)(=O)N3CCN(c4ccccc4)CC3)ccc21 | -1.9 | -4.5 | 3.5 | -5.7% | -65.4
O=C(COC(=O)/C=C/c1cccc(C(F)(F)F)c1)Nc1cccc2ccccc12 | 0.1 | -10.7 | 1.6 | -1.1% | -24.2
CC1(C)Cc2cccc(OCC(=O)OCC(=O)Nc3ccc(C(N)=O)cc3)c2O1 | -1.1 | . | 5.0 | . | .
O=C(NCc1ccco1)c1ccc(Cn2cc([N+](=O)[O-])cn2)o1 | -2.4 | -4.7 | . | -7.0% | -15.5
CCCCSc1nnc2c(n1)[nH]c1ccccc12 | 3.0 | 2.2 | -14.1 | -7.7% | -16.5
O=C(NC(=S)NCc1nc2ccccc2[nH]1)c1ccc(F)cc1 | -2.3 | -5.5 | 2.5 | -1.0% | .
Nc1c(C(=O)NCc2ccco2)c2nc3ccccc3nc2n1CCN1CCOCC1 | -152.7 | -21.9 | 2.0 | -1.7% | -13.0
CN(CC(=O)Nc1ccc(F)c(F)c1F)C(=O)CC1OC(=O)c2ccccc21 (centres undefined) | 0.4 | . | -8.0 | . | .
CC1=C(C(=O)OCc2ccccc2)C(c2ccco2)n2ncnc2N1 (centres undefined) | -1.6 | 5.9 | ? | 9.9% | -26.7 | Arbovirus anti repeat=3.0
Cn1c(SCC(=O)NCc2ccccc2)nnc1C1CC1 | 0.5 | 4.5 | -6.2 | 0.8% | -8.5
COCCn1c(-c2ccc(OC)cc2)cnc1SCC(=O)Nc1cccc2ccccc12 | 11.3 | 7.2 | 79.9 | -2.2% | -11.2
Nc1ccc(C#Cc2ccc3oc4ccccc4c(=O)c3c2)cc1 | 3.0 | . | 48.7 | 1.0% | .
Cc1ccccc1-c1cnn(-c2cccc([N+](=O)[O-])c2)c1N | 6.2 | 1.5 | 3.0 | 5.3% | .
Cc1cccc(-n2nc3c(c2NC(=O)c2ccc(Br)o2)CSC3)c1 | 4.3 | 14.7 | -3.0 | 6.1% | -19.3
CC1(CC(=O)N/N=C/c2ccc(-c3ccc(Cl)cc3)o2)OCCO1 | -0.1 | 5.6 | 96.4 | 1.5% | -25.1
O=C1NCCN1Cc1ccccc1 | -2.2 | 15.4 | 10.2 | 5.2% | -29.2
O=C(CSc1nc2ccccc2[nH]1)Nc1c(F)c(F)c(F)c(F)c1F | -1.1 | 6.7 | -3.0 | -7.8% | .
O=C(CNC(=O)c1ccccc1)OCCCOC(=O)CNC(=O)c1ccccc1 | -5.1 | . | -14.6 | . | .
Cc1ccccc1C(OCCN(C)C)c1ccccc1 (centres undefined) | 1.5&1.5 | 1.7&5.3 | -5.7&-3.8 | -3.7% | -21.4
C/C(=N\NC(=O)c1cccs1)c1ccc2ccccc2c1 | 1.0 | . | 5.4 | . | .
Cc1cc(C=C2C(=O)NC(=O)NC2=O)c(C)n1-c1ccc2c(c1)OCO2 | -2.0 | 0.6 | 3.9 | 5.0% | -4.3
N=c1c(S(=O)(=O)c2ccc(F)cc2)cc2c(=O)n3ccccc3nc2n1CC1CCCO1 (centres undefined) | -21.4 | . | -2.6 | . | .
COc1ccc2oc(=O)c(-c3nnc(N)s3)cc2c1 | -0.8 | 4.3 | 45.2 | -2.2% | .
(listing goes on)
SMILES | RecA splice inh | Arbovirus anti | Mtb betalactam | Mtb growth | YopH PTP inh | others
CC(C)c1ccc(NC(=O)c2sccc2-n2cccc2)cc1 | . | -11.4 | 6.7 | -5.6% | .
O=C(CCc1ccc(S(=O)(=O)NCc2ccccc2)cc1)NCc1cccnc1 | -5.0 | 1.6 | 0.7 | 4.7% | -5.6
CCCc1nnc(NC(=O)CN2CCOCC2)s1 | -1.0 | 7.4 | 1.6 | -5.6% | -55.3
Cc1ccc(/C=C/C(=O)Nn2cnnc2)cc1 | 1.4 | -4.7 | 41.2 | -7.5% | -22.9
CC(C)Cc1ccc(C(C)C(=O)Nc2ncccn2)cc1 (centres undefined) | 1.7 | 1.5 | -7.8 | 4.2% | .
COc1cc(/C=N/NC(=O)CNS(=O)(=O)c2ccc(C)cc2)cc(OC)c1OC | -0.8 | . | 3.8 | . | .
CC(=O)Nc1cccc(NC(=O)c2c(-c3ccccc3)noc2C)c1 | 1.6 | 0.1 | -9.6 | -2.7% | -4.0
COc1cc(Br)cc2cc(C(=O)N3CCOCC3)c(=O)oc12 | 1.4 | . | -26.0 | . | .
CCCNc1c(N)n(-c2ccccc2)c(=O)[nH]c1=O | -3.0 | -1.5 | -17.0 | -3.7% | -5.8
CN(C)S(=O)(=O)c1cccc(NC(=O)CCCSc2ccccc2)c1 | 3.1 | . | -6.4 | . | .
CNC(=S)NNC(=O)c1ccccc1F | -2.2 | 7.1 | 3.2 | -2.2% | .
COc1ccc2c(c1)CCC(C)N2C(=O)C(=O)c1c[nH]c2ccccc12 (centres undefined) | 1.8 | . | -2.0 | 7.8% | .
O=C(Oc1ccccc1)c1c(Cl)cccc1P(=O)(O)O | -0.6 | -4.5 | -0.8 | -3.5% | -37.3
CCOc1ccc(NC(=S)Nc2ccc(Br)cc2Cl)cc1 | . | 3.3 | 93.2 | ? | .
CCOc1ccc(-n2c(N)c(-c3nc4ccccc4[nH]3)sc2=S)cc1 | 3.1 | -6.5 | -8.2 | -4.6% | -28.8
COc1cccc(NC(=O)CNC(=O)c2ccccc2)c1 | 1.0 | 5.4 | -4.8 | -1.3% | -0.2
CCOc1ccc(C(=O)O/N=C(\N)c2ccccn2)cc1 | -1.0 | . | 0.8 | . | .
CCOc1ccccc1NC(=O)CC1Nc2cc(C)c(C)cc2NC1=O (centres undefined) | -6.7 | 9.7 | 1.8 | -3.9% | 6.5 | Arbovirus anti repeat=1.1
COC(=O)C(C(=O)Nc1ccccc1C)C1CCCCCC1 (centres undefined) | 0.0 | -2.6 | -0.4 | 1.8% | .
CCOc1cc(NC(=S)NCCCN2CCOCC2)c(OCC)cc1NC(=O)C1CCCCC1 | 0.0 | 3.2 | 10.8 | 1.7% | .
Fc1ccccc1/C=N/n1c(-c2cccnc2)n[nH]c1=S | 5.2 | . | -12.4 | -0.8% | .
O=C(Cn1ncc2c3ccccc3n(Cc3ccccc3F)c2c1=O)N1CCN(c2ccccn2)CC1 | -1.0 | . | -2.0 | . | .
CCOC(=O)C1CCN(S(=O)(=O)c2ccc3c(c2)CCN3C(=O)C2CCC2)CC1 | 0.3 | . | -1.2 | . | .
CCOCCOC(=O)COc1ccc2c(-c3ccccc3)cc(=O)oc2c1 | -1.6 | -2.3 | 99.7 | 1.27µM* | -23.0
O=C(Nc1ccnn1C1CCN(Cc2ccccn2)CC1)c1cccc(F)c1 | 1.6 | . | -10.9 | . | .
Next section:
SMILES | RecA splice inh | Arbovirus anti | Mtb betalactam | Mtb growth | YopH PTP inh | others
CCC(Oc1ccccc1)C(=O)NC1CCCCCC1 (centres undefined) | 1.4 | . | -15.4 | . | .
COc1ccccc1CN1C[C@@H]2C[C@@H](c3cccc(C)c3)N3CCC[C@@]23C1=O | 5.7 | 3.1 | -3.3 | 4.9% | .
COc1ccc(CCc2nnc(NS(C)(=O)=O)s2)cc1 | 0.9 | . | 2.6 | . | .
CC(C)CC(=O)OC1C(N2CCOCC2)c2c(ccc(/C=C/C(=O)N3CCOCC3)c2O)OC1(C)C (centres undefined) | 0.2 | 9.3 | -2.1 | 8.4% | 1.4
CCOc1ccccc1N(CC(=O)Nc1ccc(S(=O)(=O)N2CCOCC2)cc1)S(=O)(=O)c1ccc(Cl)cc1 | 1.1 | -18.6 | 3.1 | 8.5% | -9.3
O=C(CSc1nc2ccsc2c(=O)n1Cc1ccc(C(=O)O)cc1)NCC1CCCO1 (centres undefined) | 7.2 | 5.8 | -4.2 | -1.9% | -27.2

Among those listed so far, six contain a furan ring, fused or not.
SMILES | RecA splice inh | Arbovirus anti | Mtb betalactam | Mtb growth | YopH PTP inh | others
O=C(CCCn1c(SCC(=O)c2ccc(F)cc2)nc2ccccc2c1=O)NCc1ccco1 | 0.4 | -9.7 | 2.7 | 0.6% | -34.6
O=C(NCc1ccco1)c1ccc(Cn2cc([N+](=O)[O-])cn2)o1 | -2.4 | -4.7 | . | -7.0% | -15.5
Nc1c(C(=O)NCc2ccco2)c2nc3ccccc3nc2n1CCN1CCOCC1 | -152.7 | -21.9 | 2.0 | -1.7% | -13.0
CC1=C(C(=O)OCc2ccccc2)C(c2ccco2)n2ncnc2N1 (centres undefined) | -1.6 | 5.9 | ? | 9.9% | -26.7 | Arbovirus anti repeat=3.0
Cc1cccc(-n2nc3c(c2NC(=O)c2ccc(Br)o2)CSC3)c1 | 4.3 | 14.7 | -3.0 | 6.1% | -19.3
CC1(CC(=O)N/N=C/c2ccc(-c3ccc(Cl)cc3)o2)OCCO1 | -0.1 | 5.6 | 96.4 | 1.5% | -25.1
